2A StopGo = FMDV 2A StopGo reporter, luciferase signal; human cells with a luciferase reporter of 2A StopGo recoding; control for the full effect not named in the record; Potency, µM (highest dose often 57.9 µM), inactives show at the top dose signal change, negative = less light; hit rate 1.2% among 410,000; active = well fitted falling curve with a large enough effect; inconclusive = small, poorly fitted or top-dose-only effect; inactive = no such curve, though single readings can be large or run the other way; tested in HEK293T cells; further: nearly all actives have a fitted effect of over 45% in size; luciferase light after 4 h
RE007 growth inh = less growth of the S. pombe RE007 Vpr strain; AID 651644; S. pombe RE007 Vpr strain, BacTiter-Glo ATP luminescence, 24 h; control for the full effect not named in the record; Potency, µM (titrated, usually from 92.2 µM), without a hit: top-dose activity change, negative = less growth; hit rate 0.21% among 360,000; active = well fitted falling curve with a large enough effect; inconclusive = small, poorly fitted or top-dose-only effect; inactive = no such curve, though single readings can be large or run the other way;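 further: nearly all actives have a fitted effect of over 50% in size; the assay follows cell death caused by Vpr and the record does not say whether a fall means rescue or toxicity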
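Fission yeast RE007 carrying one integrated HIV-1 vpr copy, seeded at OD 0.01 in PMG+AL medium with 23 nL pinned compound. Grown 24 h at 30 degrees; viability read by BacTiter-Glo luminescence after 5 min.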
* hit, by the source's call; ? = inconclusive; [ ] = remark or other dose. On the % scale 0 is the no-effect control and ±100 the full control effect; potency means the concentration at half of the fitted maximal effect. Only part of the results is shown; the hit share may differ from the screen's.

SMILES	2A StopGo	RE007 growth inh
COc1ccc(CC(N)c2csc(Nc3cc(Oc4ccccc4)ncn3)n2)cc1 (stereo not drawn)	-15%	11%
CC[C@@H]1CN(C)[C@H]2Cc3c([nH]c4ccccc34)C(=O)C[C@@H]1[C@@H]2C(=O)OC	-1%	-15%
Cc1ccc(Cc2c(C3CCCCC3)nc3c(C)cc(Br)cn23)cc1	5%	-6%
CN(Cc1ccccc1)C(=O)[C@@H]1CCCN1C(=O)[C@@H]1CCCN1C(=O)c1cccc2ccccc12	0%	-13%
COc1c2c(cc3oc(=O)c4c5ccc(O)cc5oc4c13)OC(C)(C)CC2	-13%	-14%
CC(C)CN(C(=O)C1=COCCO1)c1c(N)n(Cc2ccccc2)c(=O)[nH]c1=O	-2%	9%
COc1cc(CNC(=O)c2cc(-c3cc(Cl)ccc3C)n[nH]2)cc(OC)c1	3%	1%
COc1cccc(C(NC(C)=O)c2nc(-c3ccc(N(C)C)cc3)cs2)c1 (stereo not drawn)	-10%	11%
CC(C)(C)C(=O)N1Cc2cc(-c3ccccc3)ccc2-n2nncc2C1	-30%	-5%
CC1(C(=O)NS(=O)(=O)c2ccccc2Cl)CCN1C(=O)Cc1cccs1 (stereo not drawn)	-3%	1%[18.4 µM]
COc1ccc(CN2CC[C@@H]3CN(C(C)=O)[C@H](c4ccccc4Br)C[C@@H]32)cc1	-9%	-6%
Cc1ccc(S(=O)(=O)N2CCCCC2)cc1NC(=O)COC(=O)C1CC1	-14%	-3%
COC(=O)[C@@]12C[C@@H](CC(=O)NCc3cccc(C(F)(F)F)c3)C(=O)N(CCc3ccc(OC)c(OC)c3)C1=CCC(C)(C)C2	?	0%
CC(C)(C)S(=O)N1Cc2cn(Cc3ccccc3)c(=O)cc2[C@@H]1CCO (stereo partly drawn)	-10%	5%
C/C(CC(=O)Nc1ccc(N(C)C)cc1)=N\NC(=O)c1ccccc1Cl	19%	17%
CCCCN1C(=O)C(CC(=O)NC2CC2)CC(C(=O)N(C(C)C)C(C)C)=C1C (stereo not drawn)	4%	3%
O=C1C(=Cc2cn(-c3ccccc3)nc2-c2ccc(OCc3ccccc3F)cc2)SC(=S)N1CCS(=O)(=O)O	-21%	0%
C(=C\c1ccccc1)/CN1CCN(C(c2nnnn2C2CCCC2)C2CC2)CC1 (stereo not drawn)	?	-26%
OC[C@@H]1CN(CCN2CCOCC2)C[C@H](n2cnc3c(NC4CCC4)ncnc32)O1	-6%	-6%
CCCCOCCCNC(=O)C[C@@H]1C[C@@]2(C(=O)OC)CCCCC=C2N(CCc2ccc(OC)c(OC)c2)C1=O	-19%	-5%
O=C(NCc1ccccc1)C(C1CC1)n1c(=O)c(-c2cc3ccccc3[nH]2)nc2ccccc21 (stereo not drawn)	23%	11%
COCCN1C[C@@H](CO)O[C@@H](n2cnc3c(NCCO)ncnc32)C1	-22%	3%
O=C(Nc1ccc2c(c1)OCO2)c1ccc2sc([C@@H]3O[C@H](CO)[C@H](O)[C@H](O)[C@H]3O)nc2c1	-1%	-5%[18.4 µM]
CC(=O)Nc1cc(-c2cccc(CO)c2)cn2c(-c3ccc(F)cc3)cnc12	-5%	-3%[18.4 µM]
COCCc1ccc(OC2(C)CCN(Cc3ccc(OC)c4ccccc34)C2)cc1 (stereo not drawn)	-15%	-14%[18.4 µM]
CC1(c2nnnn2Cc2ccccc2)CCC(=O)N1CC1CCCCC1 (stereo not drawn)	-24%	1%
NC(c1csc(NC(=O)Nc2ccccc2)n1)C1CCCCC1 (stereo not drawn)	-4%	0%[18.4 µM]
Cc1ccc(C(=O)N2[C@@H]3CN(C)C(=O)[C@@]2(Cc2ccccc2)[C@H]2C(=O)N(Cc4ccccc4)C(=O)[C@@H]32)cc1	18%	-8%
COCCNC(=O)C1(C)CCN(C(=O)c2cccnc2Oc2ccccc2)C1 (stereo not drawn)	-12%	-9%
Cc1ccc(-c2nc3ccc(C)cn3c2Cc2ccccc2C(F)(F)F)cc1	28%	?
CS(=O)(=O)c1ccc(-c2csc(C(O)c3cccc(Cl)c3)n2)cc1 (stereo not drawn)	0%	28%
C[C@@H]1CN([C@H](C)CO)S(=O)(=O)c2ccc(-c3ccc(C#N)cc3)cc2O[C@H]1CN(C)C(=O)Nc1cc(F)ccc1F	-13%	-24%
COc1ccc(S(=O)(=O)NC(=O)C2(C)CCN2C(=O)c2c(C)noc2C)cc1 (stereo not drawn)	0%	6%
CCCNC(=O)C1CC(c2ccccc2[N+](=O)[O-])=NO1 (stereo not drawn)	37%[activator]	1%
CC(C)Oc1ccc(F)cc1-c1cc(C(=O)NC2CCCCC2)[nH]n1	-21%	-22%[18.4 µM]
Cc1ccc(S(=O)(=O)Nc2ccc(Cl)cc2O)cc1	-3%	0%
CCCCCCCCN1C(=O)[C@H](CC(=O)NCc2ccc(OC)c(OC)c2)C[C@@]2(C(=O)OC)CCCCC=C12	-8%	-21%
O=C(Cc1cccc2ccccc12)NCC(=O)N1CCN(CC(=O)Nc2ccc(F)cc2)CC1	?	4%
Cc1ccc2ccc(C(Nc3ccccc3)c3ccc(C(C)C)cc3)c(O)c2n1 (stereo not drawn)	16%	22%
CC(C)(C)c1ccc(CC(=O)N2CCC2(C)C(=O)NCCC#N)cc1 (stereo not drawn)	-10%	-5%[18.4 µM]

Laid out differently: 15 of the compounds above.
Results follow in this order: 2A StopGo, RE007 growth inh
> CC1(c2nnnn2Cc2ccccc2)CCC(=O)N1CC1CCCCC1 (stereo not drawn)
  -24%, 1%
> NC(c1csc(NC(=O)Nc2ccccc2)n1)C1CCCCC1 (stereo not drawn)
  -4%, 0%[18.4 µM]
> Cc1ccc(C(=O)N2[C@@H]3CN(C)C(=O)[C@@]2(Cc2ccccc2)[C@H]2C(=O)N(Cc4ccccc4)C(=O)[C@@H]32)cc1
  18%, -8%
> COCCNC(=O)C1(C)CCN(C(=O)c2cccnc2Oc2ccccc2)C1 (stereo not drawn)
  -12%, -9%
> Cc1ccc(-c2nc3ccc(C)cn3c2Cc2ccccc2C(F)(F)F)cc1
  28%, ?
> CS(=O)(=O)c1ccc(-c2csc(C(O)c3cccc(Cl)c3)n2)cc1 (stereo not drawn)
  0%, 28%
> C[C@@H]1CN([C@H](C)CO)S(=O)(=O)c2ccc(-c3ccc(C#N)cc3)cc2O[C@H]1CN(C)C(=O)Nc1cc(F)ccc1F
  -13%, -24%
> COc1ccc(S(=O)(=O)NC(=O)C2(C)CCN2C(=O)c2c(C)noc2C)cc1 (stereo not drawn)
  0%, 6%
> CCCNC(=O)C1CC(c2ccccc2[N+](=O)[O-])=NO1 (stereo not drawn)
  37%[activator], 1%
> CC(C)Oc1ccc(F)cc1-c1cc(C(=O)NC2CCCCC2)[nH]n1
  -21%, -22%[18.4 µM]
> Cc1ccc(S(=O)(=O)Nc2ccc(Cl)cc2O)cc1
  -3%, 0%
> CCCCCCCCN1C(=O)[C@H](CC(=O)NCc2ccc(OC)c(OC)c2)C[C@@]2(C(=O)OC)CCCCC=C12
  -8%, -21%
> O=C(Cc1cccc2ccccc12)NCC(=O)N1CCN(CC(=O)Nc2ccc(F)cc2)CC1
  ?, 4%
> Cc1ccc2ccc(C(Nc3ccccc3)c3ccc(C(C)C)cc3)c(O)c2n1 (stereo not drawn)
  16%, 22%
> CC(C)(C)c1ccc(CC(=O)N2CCC2(C)C(=O)NCCC#N)cc1 (stereo not drawn)
  -10%, -5%[18.4 µM]

The listing continues:
SMILES	2A StopGo	RE007 growth inh
c1ccc(COc2ncnc3c2ncn3CCCN2CCN(c3ncccn3)CC2)cc1	-9%	3%
Nc1ccc(C#Cc2c(-c3ccsc3)oc3ccc(N4CCOCC4)cc23)cc1	6%	-14%
CC1(C(=O)NCC2CCOCC2)Cc2c(-c3cccc(C(F)(F)F)c3)ccnc2O1 (stereo not drawn)	-5%	6%[18.4 µM]
COc1ccc(NC(=O)CCn2c(=S)[nH]c3ccccc3c2=O)cc1Cl	-14%	0%
Cc1ccc(Cl)cc1N1C(=O)CC(Sc2ccccc2N)C1=O (stereo not drawn)	-8%	-17%
CCCCN1CC[C@H]2C=CC[C@@H](C(=O)NCc3ccc(OC)cc3)[C@H]2C1=O	-8%	3%
COc1ccc(C=C2NC(=O)NC2=O)cc1O	8%	5%
COc1ccc(-c2c(C#N)cnc(C)c2C)c(O)c1OC	0%	-17%
CCCCNC(=O)C1(C)CCCCN1C(=O)c1ccc2ccccc2n1 (stereo not drawn)	8%	14%
COCCNC(=O)C1Cc2c(-c3ccc(NC(C)=O)cc3)ccnc2O1 (stereo not drawn)	-2%	-4%
COCCNc1ncnc2c1ncn2[C@H]1CN(Cc2ccc(F)cc2)C[C@@H](CO)O1	0%	-17%
O=C1N[C@@H](Cc2ccccc2)C(=O)N2[C@@H]1C[C@]1(Br)c3ccccc3N(S(=O)(=O)c3ccccc3)[C@H]21	-10%	19%
COc1cc(Cl)ccc1OC1(C)CCN(Cc2ccc(SC)cc2)C1 (stereo not drawn)	-17%	-3%
COc1ccc(CN2C(=O)CCC2(C)c2nnnn2C2CCCCC2)cc1 (stereo not drawn)	-1%	8%
Cc1cccnc1C(NC(=O)C1CCN(Cc2cn(C)c3ccccc23)CC1)c1ccc(Cl)cc1 (stereo not drawn)	0%	14%
COC(=O)[C@]12CCCCC=C1N(CCC1=CCCCC1)C(=O)[C@H](CC(=O)NCCCN1CCCC1=O)C2	-22%	-12%
CC1OC(=O)c2cc3ccccc3nc21 (stereo not drawn)	-5%	-10%
COC(=O)c1ccc2c(=O)n(CCN3CCOCC3)c(SCC(=O)Nc3ccccc3OC)nc2c1	-16%	-15%
CCCCNC(=O)C1(C)CCCCN1C(=O)c1c(C)noc1C (stereo not drawn)	-3%	-11%[18.4 µM]
C[C@@H]1CN([C@@H](C)CO)C(=O)CCCn2nncc2CO[C@H]1CN(C)C(=O)c1ccncc1	-13%	8%
C=C1CCN([C@@H](CC(C)C)C(=O)N2CCCC2)S(=O)(=O)c2ccccc21	-17%	-7%
O=C(NC1CCCC1)C1c2ccccc2OCC(=O)N1Cc1ccco1 (stereo not drawn)	-20%	3%
CCOC(=O)[C@]12Cc3cc(C)ccc3[C@H]1N(C1CCCCC1)C(=O)c1cc(OC)ccc12	3.5µM*	?
CCc1nc2c(OCc3cccc(OC)c3)cccn2c1N(C)C(=O)c1ccccc1F	-5%	?
C[C@H]1CN([C@@H](C)CO)S(=O)(=O)c2ccc(Br)cc2O[C@@H]1CN(C)C(=O)Cc1cccnc1	11%	-8%
CCOC(=O)[C@]12CCC=C1N(CCC1=CCCCC1)C(=O)[C@H](CC(=O)NCc1cccc(C(F)(F)F)c1)C2	-12%	4%
COc1cc(-c2cnc3c(NC=O)cc(-c4cccc(C(F)(F)F)c4)cn23)cc(OC)c1OC	20µM*	8%[18.4 µM]
CCc1nc2ccc(C(=O)Nc3ccc(OC)c(OC)c3)cn2c1N(CC)Cc1cccc(Br)c1	-23%	-10%
Cc1cn(CC(=O)NCc2ccc3c(c2)OCO3)c(=O)[nH]c1=O	-12%	-3%
O=C(Nc1ccc(F)c(Cl)c1)c1cc(C2CCCCN2C(=O)c2ccccc2)on1 (stereo not drawn)	?	8%
CC(C)COC(=O)N1CCCCC1c1cc(C(=O)NCc2cccnc2)no1 (stereo not drawn)	-15%	1%
O=C(O)c1ccc(S(=O)(=O)NN=Cc2c[nH]c3ccccc23)cc1	-2%	-4%
O=C1C(=O)C(Cl)=C(Cl)C(Cl)=C1Cl	-6%	14%
CC1(Cc2cccc(C(F)(F)F)c2)C(=O)Nc2c(Cl)cccc21 (stereo not drawn)	-11%	-6%
COc1ccc(CC(N)c2csc(NC(=O)CCc3ccccc3)n2)cc1 (stereo not drawn)	?	-4%[18.4 µM]
Cc1cc(=O)c(C(=O)Nc2cccc(C(=O)NC3CC3)c2)nn1-c1ccccc1	-16%	6%
O=C(Nc1ccc(Cl)cn1)c1cccc(S(=O)(=O)N2CCCCCC2)c1	?	7%
CCOC1=C2[C@H](c3ccccc3)N(S(=O)(=O)c3ccc(C)cc3)C[C@H]2n2c(=O)n(-c3ccccc3)c(=O)n2C1	41%[activator]	-13%
OCc1ccccc1-c1cccc2nccn12	-11%	-15%
O=C1C(Br)C2CCC1C2C(=O)O (stereo not drawn)	-9%	-5%
O=C(CCC1CCCN(C(=O)c2cc(F)ccc2F)C1)N1CCN(c2ccccn2)CC1 (stereo not drawn)	?	-7%
CC(C)C[C@H]1CN([C@@H](Cc2ccccc2)CN2CCCC2CN2C(=S)NC[C@@H]2Cc2ccccc2)C(=S)N1CC1CCCCC1 (stereo partly drawn)	-16%	-5%
O=C(COC(=O)C1CC1)Nc1cccc(Cl)c1	-29%	-10%
Cc1c(NC(=O)c2cccc(S(=O)(=O)N(C)c3ccccc3)c2)c(=O)n(-c2ccccc2)n1C	-16%	-10%
CC(C)NC(=O)N(C)C[C@H]1OCCCC[C@H](C)Oc2ccc(NS(=O)(=O)c3ccccc3)cc2C(=O)N([C@H](C)CO)C[C@H]1C	-15%	8%
CC1C(=O)N(Cc2cn(CCC3OCCCO3)nn2)CCS(=O)(=O)N1Cc1ccc(-c2ccncc2)cc1 (stereo not drawn)	-15%	-1%
CN(Cc1ccccc1)C(=O)c1ccc(NC(=O)Cc2ccc(NC(=O)C3CCCN(C(=O)C4CCCCC4)C3)cc2)cc1 (stereo not drawn)	-28%	3%
C[C@@H]1O[C@H](CCc2cccc(Cl)c2)CC2=C1C(=O)OC(C)(C)O2	?	-9%
O=C(NCCc1ccccc1F)c1cc(COc2ccc(F)cc2F)on1	36%[activator]	5%
CC1(C(=O)Nc2ccc(Cl)c(Cl)c2)CCN1CCc1ccccc1 (stereo not drawn)	-24%	0%
